Cruzain inh Det – blocks cruzain activity in presence of Triton detergent. P25779. purified cruzain, Z-FR-AMC fluorescence, 0.01% Triton. Potency, µM, without a hit: max response, negative = inhibition, actives largely listed as inhibitors. 0.43% of 200,000 active; active = well fitted curve in the direction sought with a large enough effect; inconclusive = small, poorly fitted or top-dose-only effect, or another doubt; inactive = no such curve, though single readings can be large; an effect the other way counts as inactive or inconclusive;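 also: plate controls were neutral wells for no effect and buffer without enzyme for full effect; nearly all actives have a fitted effect of over 40% in size; top concentration of the series not given in the record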
Target sequence (P25779 123-467 limits assumed): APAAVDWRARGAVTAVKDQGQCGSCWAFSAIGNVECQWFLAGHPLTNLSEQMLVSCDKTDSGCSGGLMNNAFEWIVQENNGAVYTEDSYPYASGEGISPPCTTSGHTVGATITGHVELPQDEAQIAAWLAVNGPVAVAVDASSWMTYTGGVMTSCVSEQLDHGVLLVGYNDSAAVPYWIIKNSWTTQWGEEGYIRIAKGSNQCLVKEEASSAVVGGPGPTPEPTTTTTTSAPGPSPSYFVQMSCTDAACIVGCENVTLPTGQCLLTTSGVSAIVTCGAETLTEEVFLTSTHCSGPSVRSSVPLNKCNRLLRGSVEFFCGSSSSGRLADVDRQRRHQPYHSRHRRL
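Purified cruzain (1.5 nM final) was preincubated with compounds for 15 min at room temperature in 100 mM sodium acetate pH 5.5, 5 mM DTT, 0.01% Triton X-100. Reaction started with 2 uM Z-FR-AMC; AMC fluorescence change over 60 s gave activity.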
RE007 growth inh – less growth of the S. pombe RE007 Vpr strain; 0.21% of 360,000 active; S. pombe RE007 Vpr strain, BacTiter-Glo ATP luminescence, 24 h; control for the full effect not named in the record; Potency, µM (series often up to 92.2 µM), without a hit: at the top dose activity change, negative = less growth; active = well fitted falling curve with a large enough effect; inconclusive = small, poorly fitted or top-dose-only effect; inactive = no such curve, though single readings can be large or run the other way;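 also: % is scaled to controls: 0 for no effect and ±100 for the full control effect; nearly all actives have a fitted effect of over 50% in size; the assay follows cell death caused by Vpr and the record does not say whether a fall means rescue or toxicity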
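Fission yeast RE007 carrying one integrated HIV-1 vpr copy, seeded at OD 0.01 in PMG+AL medium with 23 nL pinned compound. Grown 24 h at 30 degrees; viability read by BacTiter-Glo luminescence after 5 min.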
NS1 inh – inhibitors of influenza NS1 protein function. Potency, µM (top dose mostly 46.1 µM), for the others: at the highest dose activity, positive = more growth. 0.4% of 270,000 active. AID 2326. S. cerevisiae slowed by influenza A NS1, growth recovery by OD600; also: actives are rising curves; nearly all actives have a fitted effect of over 50% in size
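Recovery from NS1-induced slow growth read by OD600 in budding yeast switched to galactose assay medium (pH 6.0, -URA) at 1:100 dilution. Compound 23 nl per well; the matching strain lacking NS1 serves as control.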
Lassa entry inh – inhibitors of Lassa virus binding or cell entry | 1.2% of 300,000 active | AID 540256 | Lassa virus pseudotype entry inhibition, cell reporter; control for the full effect not named in the record | Potency, µM (series often up to 37.9 µM), for inactives: top-dose activity change, negative = inhibition, usual class: inhibitors; active means well fitted inhibition curve with a large enough effect; inconclusive means small, poorly fitted or top-dose-only effect, or effect the other way; inactive means flat fitted curve, though single readings scatter; tested in HEK293 cells; also: % is scaled to controls: 0 for no effect and ±100 for the full control effect; nearly all actives have a fitted effect of over 50% in size; luciferase read-out
MARV entry inh – Marburg virus entry inhibition; Marburg virus pseudotyped entry inhibition, cell reporter; control for the full effect not named in the record; about a third of the inactives were read at about 46 µM; Potency, µM (titrated, usually from 37.8 µM), for the others: top-dose activity change, negative = inhibition, usual class: inhibitors; 1.8% of 300,000 active; AID 540276; active = well fitted inhibition curve with a large enough effect; inconclusive = small, poorly fitted or top-dose-only effect, or effect the other way; inactive = flat fitted curve, though single readings scatter; tested in HEK293 cells; about a fifth of its hits are not listed in these tables; also: % is scaled to controls: 0 for no effect and ±100 for the full control effect; luciferase read-out
Cruzain inh noDet – inhibitors of Trypanosoma cruzi cruzain without detergent | P25779 | 2.3% of 200,000 active | purified cruzain, Z-FR-AMC fluorescence, no detergent | Potency, µM, inactives show max response, negative = inhibition, usual class: inhibitors | AID 1476; active = well fitted curve in the direction sought with a large enough effect; inconclusive = small, poorly fitted or top-dose-only effect, or another doubt; inactive = no such curve, though single readings can be large; an effect the other way counts as inactive or inconclusive;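 also: plate controls were enzyme without inhibitor for no effect and buffer without enzyme for full effect; nearly all actives have a fitted effect of over 40% in size; top concentration of the series not given in the record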
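Purified cruzain at 1.5 nM, pre-incubated 15 min with compound at room temperature in 100 mM sodium acetate pH 5.5, 5 mM DTT, 0.00005% Triton X-100. Reaction started with 2 uM Z-FR-AMC; AMC fluorescence increase over 60 s gives rate.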
SARS PLpro yeast – SARS-CoV PLP inhibition in yeast. S. cerevisiae expressing SARS-CoV PLpro, growth rescue; control for the full effect not named in the record. Potency, µM (top dose mostly 32.9 µM), without a hit: at the highest dose activity, positive = growth rescue. 0.19% of 330,000 active. AID 485353; also: 0% is about no effect; nearly all actives have a fitted effect of over 55% in size; growth read by luminescence after 48 h
2A StopGo – lowers the luciferase signal of an FMDV 2A StopGo reporter; Potency, µM (top dose mostly 57.9 µM), inactives show top-dose signal change, negative = less light; human cells with a luciferase reporter of 2A StopGo recoding; control for the full effect not named in the record; 1.2% of 410,000 active; active = well fitted falling curve with a large enough effect; inconclusive = small, poorly fitted or top-dose-only effect; inactive = no such curve, though single readings can be large or run the other way; tested in HEK293T cells; also: % is scaled to controls: 0 for no effect and ±100 for the full control effect; nearly all actives have a fitted effect of over 45% in size; luciferase light after 4 h
An asterisk follows results filed as active; ? = inconclusive; . = no result given; & = joins results of further samples; [ ] = dose if it differs, or a comment. Unless noted, calls follow the shape of the dose curve; as a rule, active means well fitted rising curve with a large enough effect; inconclusive means small, poorly fitted or top-dose-only effect; inactive means no such curve, though single readings can be large or run the other way. Potency is read from the fitted curve at half-maximal effect. Not a hit list. About 4.6% of those tested had a hit in this group.

Values run as follows: Cruzain inh Det, RE007 growth inh, NS1 inh, Lassa entry inh, MARV entry inh, Cruzain inh noDet, SARS PLpro yeast, 2A StopGo
- CCOc1ccc2[nH]c3c(NCCCOC)ncnc3c2c1
    ., 1%, -1%, ., ., ., 20%, 27%
- OCCC1CN(Cc2cccc(-c3ccco3)c2)CCN1Cc1ccsc1 (stereo not drawn)
    ., -26%, 2%, ., ., ., 0%, -19%
- COCCCn1c(-c2ccc(OC)cc2)cc(C(=O)NC2CCCCCCC2)c1C
    -6.1%, 3%, -11%, ?, ?, ?, -43%, -3%
- CC[C@@]12C(=O)N(c3cccc(F)c3)C(=O)N1[C@H](c1ccc(F)cc1)[C@@H]1C(=O)N(C3CCCCC3)C(=O)[C@@H]12
    ., -1%, 1%, ., ., ., 1%, 0%
- O=C1CS(=O)CN1c1ccc(Oc2ccccc2)cc1 (stereo not drawn)
    ., -3%, 6%, 9%[46.1 µM], 9%[46.1 µM], ., 0%, 7%
- COc1ccc(Cl)cc1NC(=O)c1cnc2sccn2c1=O
    -4.1%, -5%, -6%, ., ., -8%, -3%, 2%
- Cc1ccc(NC(=O)Cn2cc(C(=O)c3ccccc3)c3ccccc32)c(C)c1
    -5.8%, ., ., ?, ?, 5%, ., -28%
- COc1ccc(C(=O)N2CCCC(CNC(=O)c3ccccc3Cl)C2)o1 (stereo not drawn)
    ., 2%, 3%, ., ., ., 3%, 31%[activator]
- O=C(Nc1c2c(nc3c1CCC3)CCCC2)c1ccccn1
    -1.5%, ., -6%, -4%, 5%, -3%, 1%, -16%
- Cc1cc(N2CCC(C(=O)Nc3ccc(Cl)cc3)CC2)n2nc(C)c(-c3ccc(Cl)cc3)c2n1
    0.3%, ., ., 24%[46.1 µM], 8%[46.1 µM], -4%, ., -20%
- Cc1ccc(-c2nnn(CC(=O)NCCC3=CCCCC3)n2)cc1
    8.5%, 11%, 1%, -19%, -10%[46.1 µM], ?, 15%, 3%
- C=CCNC(=O)NC(=O)c1csc([N+](=O)[O-])c1
    ., -18%, 2%, ?, 14%, ., -1%, 7%
- CC1(C)Cc2c(c(N3CCCC3)[nH]c(=S)c2C#N)CO1
    2.1%, ., 2%, ., ., 0%, 0%, .
- CCCCN(C(=O)c1cccc(S(=O)(=O)N2CC(C)OC(C)C2)c1)c1c(N)n(CCCC)c(=O)[nH]c1=O (stereo not drawn)
    ., -21%, -2%, 16%, -8%, ., 2%, -8%
- CCN(CCCNC(=O)CCNC(=O)Cn1ccc2ccccc2c1=O)c1ccccc1
    7.5%, 1%, -7%, -23%, -17%, 3%, 3%, 0%
- CCn1c(CCc2ccccc2)n[nH]c1=S
    ., -6%, 5%, ?, ?, ., 1%, -13%
- Cc1ccc(S(=O)(=O)N(C)CC(=O)OCc2nnc(-c3ccccc3)o2)cc1
    2.2%, 7%, -157%, 17%, 19%, -7%, -11%, 13%
- COc1ccc(-n2c(O)c(C=NCc3ccc4c(c3)OCO4)c(=O)[nH]c2=O)cc1
    ., -7%, -2%, 4%[46.1 µM], ?, ., -1%, -2%
- Cc1ccccc1NS(=O)(=O)c1cc(C(=O)Nc2cccnc2)ccc1C
    ., -8%, 1%, -21%, ?, ., 3%, 14%
- CCc1cc(C(=O)Cc2nc3ccccc3s2)c(O)cc1OCC(=O)O
    ., 10%, ?, 17%, 7%, ., 1%, 14%
- O=C(Nc1cccnc1)/C(N=Nc1cccnc1)=C(\O)c1ccccc1
    -6.8%, 1%, -9%, ?, 11%, ?, -15%, 0%
- Cc1sc(NC(=O)c2ccc(Br)s2)c(C(N)=O)c1C
    0.7%, -26%, -9%, ?, ?, 6%, -5%, 24%
- CCCn1c2c(c(O)c(C(=O)Nc3ccc(OC)cc3)c1=O)CCCC2
    -5.4%, -1%, -8%, -1%, -5%, 13%, -2%, 0%
- CCC(=O)N1CCc2cc(S(=O)(=O)NC(CC(C)C)C(=O)NCc3ccc(F)cc3)ccc21 (stereo not drawn)
    -2.6%, ., ., -3%[46.1 µM], 1%[46.1 µM], -2%, ., -7%
- O=c1[nH]c(=O)n(-c2cccc(Cl)c2)c(O)c1C=NCCN1CCCCC1
    ?, 1%, 7%, -3%, -3%&-3%, 0%, 2%, .
- Cc1ccc(-c2nn(CC(=O)O)c(=O)c3ccccc23)cc1
    -2.3%, -9%, 4%, ?, 21%&21%, 0%, -19%, 14%
- CSC1=NSC2=NC(=O)/C(=C/c3coc4ccc(O)cc4c3=O)C(=N)N12
    -18%, -1%, 10%, 14%, 1%, -4%, 4%, -26%
- COc1ccc(CNC(=O)C2CC(c3ccc(F)cc3)=NO2)cc1 (stereo not drawn)
    -1.4%, -4%, 2%, 1%, 2%, 1%, 6%, -22%
- Cc1cccc(NC(=O)N2CC(=O)Nc3sc4c(c3C2c2ccccc2)CCCC4)c1C (stereo not drawn)
    -4.5%, ., ., -13%[46.1 µM], -9%[46.1 µM], 3%, ., ?
- CCCc1nnc(SCC(=O)N2CCCCC2)n1CC1CCCO1 (stereo not drawn)
    2.3%, -17%, -5%, 18%, 21%, -2%, ?, -2%
- Cc1c(C(C)(C)O)[nH]c2ccc(C(F)(F)F)cc12
    ., -19%, -101%, ., ., ., -16%, 2%
- O=C(CC(C(=O)O)c1ccccc1)c1cccs1 (stereo not drawn)
    ., 2%, -2%, 1%, 0%, ., -1%, -1%
- CCc1nn(CC(=O)NCCC(C)C)c(=O)c2cc3c(OC)cccc3n12
    ., 5%, -3%, ., ., ., -1%, -20%
- COc1ccc(CNC2C[C@H]3CCCC(=O)N4CC[C@@H](C2)[C@@H]34)cc1 (stereo partly drawn)
    1.1%, -4%, ., ., ., -6%, 2%, -3%
- COc1ccccc1NS(=O)(=O)c1cc(NC(=O)/C=C/c2cccs2)ccc1N1CCOCC1
    -8.0%, ., 14µM*, -4%, ?, 25µM*, 9%, 55%[activator]
- Cc1ccc(S(=O)(=O)Nc2cccc(C(=O)NCCCn3ccnc3)c2)cc1F
    ., ?, ., 4%, 2%, ., -1%, 0%
- CC(=O)Cc1nsc(Nc2ccc(C)cc2)n1
    ., -2%, 3%, ?, -13%, ., 1%, 60%[activator]
- O=C(c1ccc(NC(=S)NCc2ccco2)cc1)N1CCOCC1
    ., 0%, 6%, ., ., ., -1%, 17%
- CC1CCc2c(sc(NC(=O)C3c4ccccc4Oc4ccccc43)c2C(N)=O)C1 (stereo not drawn)
    -6.3%, 10%, 14%, -25%, 5%, 25µM*, 19%, -11%
- CC(C)c1ccc(NC(=O)c2snc3ccc(Cl)cc23)cc1
    -7.6%, -3%, -1%, ?, ?, 2%, 1%, 20%
- CC(=O)Nc1ccc(NS(=O)(=O)C(F)(F)F)cc1
    5.1%, 1%, ?, 4%, 2%, 8%, 4%, 12%
- CCOC(=O)C(=O)Nc1ccccc1C#N
    -3.6%, -15%, 10%, 6%, 5%, 0%, 6%, -4%
- CCOC(=O)c1ccc(Nc2cc(C)nc3ncnn23)cc1
    -1.1%, 20%, 3%, 1%, -13%, -12%, 2%, -1%
- Cc1ccc(C(=O)Nc2ccc3c(c2)OCO3)cc1S(=O)(=O)N1CCOCC1
    ., 1%, 1%, 2%, 10%, ., 0%, 11%
- COc1cc2c(cc1OC)C(c1ccc(-c3ccccc3Cl)o1)=NCC2
    -8.2%, -20%, -67%, ?, 21µM*, -8%, -6%, -11%
- Cn1c2ccccc2c2ccc3c(c21)C(=O)C=CC3=O
    ., -5%, ., 10%, 3%, ., ., 20µM*
- COc1ccc(CNC(=O)c2cc3c(s2)CS(=O)C3)cc1 (stereo not drawn)
    4.4%, 2%, -3%, ., ., -5%, 7%, 10%
- O=C(NCCc1ccccn1)C1CCN(S(=O)(=O)c2ccc(Cl)cc2)CC1
    ., -4%, ., -8%, ?, ., 1%, -19%

Among those listed so far, these contain a Cl atom:
Values run as follows: Cruzain inh Det, RE007 growth inh, NS1 inh, Lassa entry inh, MARV entry inh, Cruzain inh noDet, SARS PLpro yeast, 2A StopGo
- COc1ccc(Cl)cc1NC(=O)c1cnc2sccn2c1=O
    -4.1%, -5%, -6%, ., ., -8%, -3%, 2%
- COc1ccc(C(=O)N2CCCC(CNC(=O)c3ccccc3Cl)C2)o1 (stereo not drawn)
    ., 2%, 3%, ., ., ., 3%, 31%[activator]
- Cc1cc(N2CCC(C(=O)Nc3ccc(Cl)cc3)CC2)n2nc(C)c(-c3ccc(Cl)cc3)c2n1
    0.3%, ., ., 24%[46.1 µM], 8%[46.1 µM], -4%, ., -20%
- O=c1[nH]c(=O)n(-c2cccc(Cl)c2)c(O)c1C=NCCN1CCCCC1
    ?, 1%, 7%, -3%, -3%&-3%, 0%, 2%, .
- CC(C)c1ccc(NC(=O)c2snc3ccc(Cl)cc23)cc1
    -7.6%, -3%, -1%, ?, ?, 2%, 1%, 20%
- COc1cc2c(cc1OC)C(c1ccc(-c3ccccc3Cl)o1)=NCC2
    -8.2%, -20%, -67%, ?, 21µM*, -8%, -6%, -11%
- O=C(NCCc1ccccn1)C1CCN(S(=O)(=O)c2ccc(Cl)cc2)CC1
    ., -4%, ., -8%, ?, ., 1%, -19%
